MgrA DNA FP: alters Staphylococcus aureus MgrA binding to DNA | fluorescence polarization | inhibition, %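 (about 10 µg/mL by stock and volumes)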 | actives 0.13% (n = 84,000) | AID 602314;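 active = above 50% in either of two replicates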;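 also: 0% = protein plus DNA without compound and 100% = DNA alone without protein; higher means less MgrA bound to DNA so lower polarization; one replicate is shown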
S aureus helic: blocks Staphylococcus aureus DNA helicase | purified S. aureus helicase, fluorescence unwinding assay; about half of the hits fall short of the stated cut | inhibition, %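 (tested at about 80 µM)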 | actives 0.05% (n = 120,000);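 active = both duplicates at 50% or more, or one of them with a favoured structure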;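 also: 0% = mean of negative control wells and 100% = mean of positive control wells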
The depositor's hits bear a star; · = not tested or not shown; & = joins results of further samples. Some of the compounds tested; count on the stated rates, not on these rows.

SMILES	MgrA DNA FP	S aureus helic
COc1ccc(CCNC(=O)CCc2nnc3n(C)c(=O)c4sccc4n23)cc1OC	·	-28.0
CCN1C(=O)CSc2ccc(C(=O)NC(C)C)cc21	·	15.0
COc1ccc(NC(=O)CC(C)(C)CC(=O)O)cc1OC	-2.8	·
N#CC(=C=[N-])c1nc2ccccc2nc1-[n+]1ccccc1	·	0.0&18.0
CC(C)Cn1c2ccccc2c2cc(C(=O)O)ccc21	·	45.0
COc1ccc(/C=N/N(C)C2=NCCN2)c(OC)c1OC	-0.5	-3.0
O=C(O)c1ccccc1N1C(=O)c2ccccc2C1=O	-1.8	-1.0
CN(/N=C/c1ccccc1)C1=NS(=O)(=O)c2ccccc21	2.0	-3.0
Oc1ccc(Br)cc1C=Nc1cccc(-c2nc3ccccc3o2)c1	0.0	-4.0
O=C(CCc1ccccc1)N/N=C/c1ccncc1	0.8	8.0
COc1cccc(C(=O)OCc2ccccc2C#N)c1O	·	-12.0
C#CCSc1nc(C)cc(C)c1C#N	-0.4	·
CCOc1ccc2nnnn2n1	·	11.0
CC(=O)c1ccc(Nc2cc(C)nc3ccccc23)cc1	-0.7	·
C[n+]1[nH]oc(=O)c1-c1ccccc1	·	5.0
O=C(NC1CCN(c2nccc(C(F)(F)F)n2)CC1)c1ccco1	-2.4	·
CC(=O)N1CCC(c2c[nH]c3ccccc23)CC1	-2.1	·
CCOC(=O)C1=C(SCC)c2cc3c(n2C1=O)CCCC3	2.0	14.0
NCCSC12CC3CC(CC(C3)C1)C2	1.4	-11.0
O=c1oc(-c2ccc(Br)cc2)nc2sc3c(c12)CCCC3	1.1	·
CC1CN(C(=O)Cn2nc(C(=O)O)c3ccccc3c2=O)CC(C)O1 (stereo unspecified)	·	-16.0
COc1ccc(-c2csc(N)n2)cc1C	-0.5	14.0
CCN(CC)C(=O)c1ccc2nc(N)sc2c1	3.2	0.0
N#C/C(=C/c1ccccc1)c1ccc(C#N)cc1	-1.6	6.0
CC1CCN(S(=O)(=O)N2CCCC(C(=O)Nc3ccccc3C(=O)c3ccccc3)C2)CC1 (stereo unspecified)	·	-29.0

An excerpt from above in order of their number in MgrA DNA FP, ascending:
| SMILES | MgrA DNA FP |
| --- | --- |
| COc1ccc(NC(=O)CC(C)(C)CC(=O)O)cc1OC | -2.8 |
| C#CCSc1nc(C)cc(C)c1C#N | -0.4 |
| CN(/N=C/c1ccccc1)C1=NS(=O)(=O)c2ccccc21 | 2.0 |

(more compounds)
SMILES	MgrA DNA FP	S aureus helic
COc1ccccc1NC(=O)Cc1nn(C)c(=O)c2ccccc12	1.7	4.0
Fc1ccc(-c2nnc(Cc3nnc(-c4ccc(F)cc4)o3)o2)cc1	0.3	18.0
Ic1ccc(Nc2nc3nonc3n3nnnc23)cc1	-2.2	8.0
CC(NC1CCCC(C)C1C)C(=O)Nc1ccc2c(c1)OCCO2 (stereo unspecified)	·	4.0
Cc1ccc(C2=NC(c3ccc(F)cc3)=Nc3ccc(Cl)cc3N2)o1	·	3.0
Cc1ccc(C)c(COc2ccc(C)nc2N)c1	3.0	·
COc1ccccc1C=Nc1ccc2c(c1)nc(C)n2Cc1ccccc1	0.1	12.0
CCn1c(Cc2ccccc2)nnc1SCC(=O)Nc1ccccc1	1.4	2.0
COc1ccc(/C=N/O)cc1COc1ccc(NC(C)=O)cc1	-0.4	-6.0
Cc1ccccc1OCc1nnc2n1CC(C)S2 (stereo unspecified)	·	14.0
CC(C)C(NC(=O)c1ccc(C2SCC(=O)N2Cc2ccco2)cc1)C(C)C (stereo unspecified)	-1.9	15.0
O=C1c2ccccc2C(=O)N1CCCc1nc2ccccc2c(=O)n1CCCn1ccnc1	3.3	·
O=S(=O)(CCSc1cccs1)c1ccccc1	-0.2	·
CC1=C(C(=O)Nc2ccccc2)C(CC(C)C)n2ncc(C(=O)Nc3ccccc3)c2N1 (stereo unspecified)	-0.2	-2.0
CCC(=O)Nc1c(Cl)nc(C)c(Cl)c1C	1.4	-15.0
Cc1ccc(N/C(=C/C(=O)c2ccccc2)C(=O)O)cc1Br	-1.6	10.0
CC1(C)CC(CC#N)(c2ccccc2)CCO1 (stereo unspecified)	-1.1	-3.0
COC(=O)c1ccc(-c2cn3cccnc3n2)cc1	4.5	·
CCOc1ccc(C(=O)NCCn2ccc3ccccc32)cc1OCC	·	9.0
C=CCNC(=S)N1CCNC(=O)C1CC(=O)Nc1cc(Cl)ccc1OC (stereo unspecified)	-3.8	-3.0
CCCNC(=O)Cn1c2c(c(-c3ccccc3Cl)cc1=O)CCC2	-0.7	11.0
CNC(=O)c1cnc2cc(Cl)ccc2c1OC	-1.1	12.0
Clc1ccc2nc(-c3ccccc3)cn2c1	·	-42.0
Cc1c(Cl)cccc1NC(=S)NN(C)C	·	20.0
O=C(CN1C(=O)COc2ccccc21)N1CCCC1	-0.2	0.0

A different layout for part of the listing above.
| MgrA DNA FP | S aureus helic | SMILES |
| --- | --- | --- |
| 3.3 | · | O=C1c2ccccc2C(=O)N1CCCc1nc2ccccc2c(=O)n1CCCn1ccnc1 |
| -0.2 | · | O=S(=O)(CCSc1cccs1)c1ccccc1 |
| -0.2 | -2.0 | CC1=C(C(=O)Nc2ccccc2)C(CC(C)C)n2ncc(C(=O)Nc3ccccc3)c2N1 (stereo unspecified) |

Remaining list, next part.
SMILES	MgrA DNA FP	S aureus helic
CC(C)CCn1c(O)c(N=NC(N)=O)c2ccccc21	·	8.0
CCn1cc(-c2cc(C(=O)O)c3ccccc3n2)cn1	-3.1	16.0
Cn1ccnc1-c1ccc(-c2nccn2C)cc1	-0.1	11.0
CC1(C)CC(N2C(=O)c3ccccc3C2(O)Cc2ccccc2)CC(C)(C)N1 (stereo unspecified)	1.9	-15.0
O/N=C(\Cn1cncn1)c1ccc(Cl)cc1Cl	0.2	7.0
O=C(Nc1ccc(-c2nc3ccccc3[nH]2)cc1)c1ccc(-c2ccccc2)cc1	-0.1	7.0
COc1ccc2cc3c(N)nn(C(=O)Cc4c(F)cccc4Cl)c3nc2c1	0.5	13.0
O=C(Nc1ccccc1Oc1ccc(Cl)cc1Cl)c1cccs1	0.9	·
O=C(OCc1ccc(Cl)cc1)c1cccs1	1.6	-2.0
CN(C)C(=S)Nc1ccccc1	-0.8	·
O=c1[nH]c2ccccc2nc1NC(=S)Nc1ccccc1	2.0	-1.0
C=C(C)CC1C(=O)NN=C1C (stereo unspecified)	4.1	·
CSc1nsc(SC)c1NC(=O)OCCc1ccccn1	·	5.0
CCCNC(=O)c1c(C)c(C(=O)OCC)n(CC)c1C	·	-17.0
N#C/C(=C(/O)c1ccco1)c1nc2ccccc2s1	-2.5	·
C=CCC1C(=O)NN=C1CCC (stereo unspecified)	-1.9	·
S=C(SCc1ncon1)N1CCCC1	0.8	·
Cn1c(=NC(=O)c2cccc(OC(F)F)c2)sc2ccccc21	·	15.0
CC(C)(C)NS(=O)(=O)c1ccc(N2CCCC2=O)cc1Cl	-4.0	-1.0
CC(C)(C)c1ccc(OCC(=O)n2ncc(C#N)c2N)c(C(C)(C)C)c1	0.1	·
NS(=O)(=O)c1ccc(Oc2c(Cl)cccc2[N+](=O)[O-])cc1	-0.1	·
Cc1ccccc1OCc1nc2ccccc2c(=O)n1/N=C/c1ccco1	·	-12.0
Cc1cccc(-n2c(N)cc(=O)nc2SCC(=O)NC2CCCCC2)c1	11.4	14.0
O=C(c1cc2nc(-c3ccccc3)cc(C(F)(F)F)n2n1)N1N=C(C(F)F)CC1(O)C(F)F (stereo unspecified)	·	11.0
BrCCOc1cccc(Br)c1	0.5	-8.0

Single records, as listed above. Order of values: MgrA DNA FP, S aureus helic
C=C(C)CC1C(=O)NN=C1C (stereo unspecified) is listed as 4.1, ·
C=CCC1C(=O)NN=C1CCC (stereo unspecified) is listed as -1.9, ·

New compounds follow
SMILES	MgrA DNA FP	S aureus helic
O=C(N/N=C/c1c[nH]c2ccccc12)c1cccc(O)c1	·	-33.0
Cc1cccc(C(=O)Nc2ccc(NC(=O)c3ccco3)cc2)c1	3.0	8.0
CC1=C(C(=O)N2CCOCC2)C(c2ccc(C(F)(F)F)cc2)C2=C(CCCC2=O)N1 (stereo unspecified)	-1.2	10.0
CC(C)n1c(NCc2ccccc2O)nc2ccccc21	·	30.0
O=S(=O)(NCCc1ccccc1)c1cccc2nsnc12	-1.1	·
O=C(CC(NCc1ccccc1)C(=O)O)c1ccc(Br)cc1 (stereo unspecified)	3.3	-12.0
CCOc1ccc(C(=O)Nc2nc3c(OC)cccc3s2)cc1	·	-7.0
S=C(Cc1ccc(CC(=S)N2CCOCC2)cc1)N1CCOCC1	·	-24.0
Cn1nc(C(C)(C)C)cc1C(C)(C)C	-0.7	·
O=C(CN1CCC(C(=O)c2ccc(F)cc2)CC1)Nc1ccccc1	-1.6	13.0
O=S(=O)(c1cccs1)N1CCc2ccccc21	·	-58.0
CCOC(=O)c1c(C)n(C)c2ccc(OCC(O)CNCc3ccco3)cc12 (stereo unspecified)	·	17.0
O=C1c2ccccc2C(=O)c2c1cccc2-c1cccc2c1C(=O)c1ccccc1C2=O	0.6	·
CCN(CC(=O)Nc1ccc(Br)cc1)C(=O)c1nc2nc(C)cc(C)n2n1	·	7.0
CC(C)C(NC(=O)c1ccccc1F)C(=O)O (stereo unspecified)	-1.9	-14.0
CC1(C(=O)NCc2ccccc2)CCC(=O)N1CCC1=CCCCC1 (stereo unspecified)	·	-34.0
O=c1[nH]c(SCc2cccc(C(F)(F)F)c2)nc2c1cnn2-c1ccccc1	·	11.0
CC1(C)CC2CC(C)(CN2/C=C/C#N)C1 (stereo unspecified)	·	-3.0
Cc1ccc(NC(=O)COC(=O)C2CC2C)c(S(=O)(=O)N2CCCCC2)c1 (stereo unspecified)	·	12.0
O=C1NCCN1c1ncc([N+](=O)[O-])s1	-2.4	·
O=C(COc1ccc(-n2cnnn2)cc1)NC12CC3CC(CC(C3)C1)C2	·	0.0
OC(CNc1ccccn1)COc1ccc(OCC(O)CNc2ccccn2)cc1 (stereo unspecified)	4.8	49.0
CCOc1ccc(C(=O)CSCC(=O)O)cc1	·	-18.0
C1=C(CCNc2nc3ccccc3n3nnnc23)CCCC1	0.1	3.0
COc1cc(OC)c(/C=N/O)cc1Br	0.3	-11.0
Continuation.
SMILES	MgrA DNA FP	S aureus helic
CC(=O)c1ccc2c(c1)C1C=CCC1C(c1cccc3ccccc13)N2 (stereo unspecified)	-1.0	·
CCCc1ccc(OCc2ccc(C(=O)n3cc(Br)cn3)cc2)cc1	1.9	8.0
CCNC(=O)CC1S/C(=N\N=C\c2ccc(C)o2)NC1=O (stereo unspecified)	3.1	6.0
O=C(Cc1ccccc1)NC1CCN(S(=O)(=O)c2cccc(C(F)(F)F)c2)CC1	0.3	·
Cc1coc(NC(=O)CSc2nc3c(c(C(F)(F)F)c2C#N)CC(c2ccccc2)CC3)n1 (stereo unspecified)	-0.2	15.0
COc1ccc(-c2c(N)n[nH]c2C)cc1OC	-2.5	·
CC1CCCC(C)N1C(=O)COC(=O)c1cccc(Br)c1 (stereo unspecified)	-3.8	-1.0
O=C(/C=C/c1cn(-c2ccccc2)nc1-c1ccc2c(c1)OCCO2)NCCO	·	11.0
Cc1csc(NC(=O)c2cc3c(s2)CCC3)n1	-3.9	-9.0
N#CCc1nc(-c2ccc3c(c2)OCCCO3)cs1	-2.3	·
CCOC(=O)CN1CC23C=CC(O2)C(C(=O)Nc2ccc(CC)cc2)C3C1=O (stereo unspecified)	-1.1	9.0
CC1CC(C)CN(C(=O)COc2ccccc2)C1 (stereo unspecified)	-1.4	15.0
O=C(c1ccc(C(F)(F)F)cc1)N(c1ccccc1)n1c(-c2cccc([N+](=O)[O-])c2)csc1=S	0.4	·
CN(CC(=O)Nc1ccc(OC(F)(F)F)cc1)C(=O)/C=C/c1ccco1	·	15.0
CC(Oc1cccc(Oc2ccccc2)c1)C(N)=O (stereo unspecified)	·	-21.0
CC1(C)O[C@@H]2CC3C4CCC5=CC(=O)C=C[C@]5(C)[C@@]4(F)[C@@H](O)C[C@]3(C)[C@]2(C(=O)CO)O1 (stereo partly specified)	0.7	·
COc1cc(C(=O)N2CCSC2=NCCc2ccccc2)ccc1OCc1c(C)noc1C	·	-11.0
COc1cc2nc(C3CCC3)n(NC(=O)COc3ccccc3)c(=O)c2cc1OC	-2.2	-5.0
COc1ccc(-c2coc3cc(O)ccc3c2=O)cc1	0.8	·
COc1ccc(OC)c(C2=NOC(C(=O)Nc3c(C)n(C)n(-c4ccccc4)c3=O)C2)c1 (stereo unspecified)	·	-20.0
O=c1oc2cc(O)ccc2c2c1CCCC2	·	4.0
COCCNC(=O)c1ccc(Cl)cc1	·	5.0
O=C1CNC(=O)/C1=C\c1ccc(Br)cc1	·	-5.0
C=CCC1(CC=C)CCCN1	-3.8	5.0
O=C(OCCSCCS(=O)(=O)c1ccc(Cl)cc1)c1ccccc1Cl	2.6	·
The list continues:
SMILES	MgrA DNA FP	S aureus helic
COc1ccc(C(O)c2cccs2)cc1OC (stereo unspecified)	2.8	6.0
CCOC(=O)C(C(N)=O)C1(O)OC(c2ccccc2)=CC1=O (stereo unspecified)	23.2	2.0
CCCCOC(=O)C1Cc2ccccc2C(=O)O1 (stereo unspecified)	3.0	11.0
O=C(Nc1ccc2nsnc2c1)C1CC1	0.8	3.0
Cc1nc(Nc2ccccc2)nc(=O)n1-c1ccccc1	·	36.0
CC1=C(C(=O)Nc2ccc(CC(=O)N3CCC4(CC3)OCCO4)cc2)SCCO1	1.8	14.0
COc1ccc(C2C(C(=O)OCCOc3ccccc3)=C(C)NC3=C2C(=O)CC(C)(C)C3)c(OC)c1OC (stereo unspecified)	-0.6	·
COc1ccccc1NC(=O)CC(NC1CCCCC1)C(=O)O (stereo unspecified)	0.8	4.0

An excerpt from above in order of SMILES length, ascending:
SMILES	MgrA DNA FP	S aureus helic
COc1ccc(C(O)c2cccs2)cc1OC (stereo unspecified)	2.8	6.0
Cc1nc(Nc2ccccc2)nc(=O)n1-c1ccccc1	·	36.0
COc1ccc(C2C(C(=O)OCCOc3ccccc3)=C(C)NC3=C2C(=O)CC(C)(C)C3)c(OC)c1OC (stereo unspecified)	-0.6	·

Screening results deposited in PubChem by ICCB-Longwood Screening Facility, Harvard Medical School.
